# From PubChem
# Menin MLL FP FL: qHTS Assay for Inhibitors Targeting the Menin-MLL Interaction in MLL Related Leukemias: Competition With Fluorescein Labeled MLL-derived Peptide | Fluorescence polarization, fluorescein-MLL peptide displacement from menin | FP activity change, % at 61.4 µM | 290,000 tested, under 10 active; inconclusive = falling polarisation curve, or a change in total fluorescence; inactive = total fluorescence flat and polarisation flat or rising; no compound was filed as active; the % refers to the polarisation; negative = inhibition;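 also: % of control where 0% means no effect; inhibitors lower the polarisation; unlabelled MLL peptide was the positive control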
# TRPV1 potentiator: HTS Assay for Compounds that Act as Potentiators of the Vanilloid Receptor 1; actives 0.02% (n = 320,000); TRPV1-expressing cells, Fluo-8 calcium influx, capsaicin EC20 potentiation; host cell line not named in the record; control for the full effect not named in the record; potentiation, % at 8.33 µM; AID 540277, 2011; active means potentiation above 80%; inconclusive means 30% to 80%; inactive means below 30%; also: 0% is about no effect
#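 Fluo-8 calcium influx in TRPV1-expressing cells, kinetic read (ex 480/em 520 nm). Compound added and read 3 min for agonist activity, followed by capsaicin at EC20 final and 2 min further read for enhancement.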
# gsp antag: qHTS for Antagonists of gsp, the Etiologic Mutation Responsible for Fibrous Dysplasia/McCune-Albright Syndrome: qHTS; actives 0.4% (n = 340,000); gsp-mutant cells, cAMP HTRF, 30 min; control for the full effect not named in the record; Potency, µM (titrated, usually from 76.9 µM), without a hit: top-dose activity change, negative = inhibition, actives largely listed as inhibitors; active = falling curve of any shape with a large fitted effect; inconclusive = falling curve, mostly with a smaller effect; inactive = flat or rising curve; cell line not stated here;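 also: intracellular cAMP measured with PDE inhibitor Ro 20-1724 present during compound exposure; potency is read from the fitted curve at half-maximal effect; % is scaled to controls: 0 for no effect and ±100 for the full control effect; nearly all actives have a fitted effect of over 65% in size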
#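 Cells in G418 medium, seeded 16-24 h, 37C; buffer exchange to DPBS + 1 mM CaCl2, 0.5 mM MgCl2, 0.05% BSA; cpds in DMSO + […] (300 uM stock), 30 min 37C; HTRF cAMP detection.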
# D2 PAM: Beta-Arrestin HTS for Positive Allosteric Modulators of the Human D2 Dopamine Receptor: Potentiators; D(2) dopamine receptor (Homo sapiens), P14416; DiscoveRx D2 beta-arrestin cells, luminescence, 90 min; 100% = 57 uM dopamine signal; potentiation, % (no concentration beside the values); actives 0.23% (n = 360,000); active = potentiation of 50% or more; inconclusive = 30% to 50%; inactive = 30% or less;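 also: compound concentration not given in the record; tested on top of an EC20 dose of dopamine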
# Target sequence (P14416 whole entry, looked up): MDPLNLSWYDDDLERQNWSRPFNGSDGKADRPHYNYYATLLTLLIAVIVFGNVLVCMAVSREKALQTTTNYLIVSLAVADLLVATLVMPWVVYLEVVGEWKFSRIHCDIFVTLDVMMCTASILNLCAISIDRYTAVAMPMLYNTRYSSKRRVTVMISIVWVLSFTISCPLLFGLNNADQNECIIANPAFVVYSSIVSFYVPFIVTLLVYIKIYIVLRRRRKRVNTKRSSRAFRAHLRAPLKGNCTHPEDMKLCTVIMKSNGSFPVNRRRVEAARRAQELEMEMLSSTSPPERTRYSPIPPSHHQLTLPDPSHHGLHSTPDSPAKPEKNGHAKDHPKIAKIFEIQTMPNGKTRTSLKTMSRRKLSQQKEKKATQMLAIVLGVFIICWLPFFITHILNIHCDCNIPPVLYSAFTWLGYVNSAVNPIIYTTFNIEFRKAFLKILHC
#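 PathHunter beta-arrestin assay in DiscoveRx D2 cells. Compounds were added with an EC20 of dopamine (50 nM final) for 90 min at 37 deg C. Luminescence was read 1 h after detection reagent, with 57 uM dopamine as the EC100 control.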
# Sfp inh: qHTS Assay for Inhibitors of Bacillus subtilis Sfp phosphopantetheinyl transferase (PPTase). 4'-phosphopantetheinyl transferase ffp (Bacillus subtilis), Q9F4F7. Biochemical Sfp PPTase activity, qHTS. Potency, µM, for the others: max response, negative = inhibition, hits mostly inhibitors. actives 3.5% (n = 310,000). AID 1490, 2009; active = well fitted inhibition curve with a large enough effect; inconclusive = small, poorly fitted or top-dose-only effect, or another doubt; inactive = no such curve, though single readings can be large or run the other way;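 also: the enzyme is Sfp with the accession as filed and its product quenches rhodamine fluorescence; potency is read from the fitted curve at half-maximal effect; 0% = enzyme reaction without inhibitor and -100% = no enzyme wells; top concentration of the series not given in the record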
#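 Fluorescence-quenching assay with 15 nM Sfp, 5 uM rhodamine-CoA and 12.5 uM BHQ-2-labelled ybbR peptide in pH 7.6 Hepes/MgCl2 buffer. Enzyme was pre-incubated with compound for 15 min at room temperature. Rate was taken from the 30-min fluorescence change (525/598 nm).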
# gsp agonist: qHTS for Agonist of gsp, the Etiologic Mutation Responsible for Fibrous Dysplasia/McCune-Albright Syndrome: qHTS | gsp mutant cells, cAMP HTRF, 30 min; control for the full effect not named in the record | Potency, µM (highest dose often 76.9 µM), inactives show at the top dose activation (cAMP increase), hits mostly activators | actives 0.13% (n = 340,000) | AID 624287, 2012; active = well fitted activation curve with a large enough effect; inconclusive = small, poorly fitted or top-dose-only effect, or another doubt; inactive = no such curve, though single readings can be large or run the other way; cell line not stated here;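 also: phosphodiesterase inhibitor Ro 20-1724 added with compounds to block cAMP breakdown; potency is read from the fitted curve at half-maximal effect; nearly all actives have a fitted effect of over 60% in size; about a fifth of the inactives were tested at one dose only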
#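 Cells in DMEM/10% FBS with G418 were pretreated with compounds in DMSO plus […] (300 uM stock) for 30 min at 37C. cAMP was measured by HTRF (cAMP-d2 plus anti-cAMP antibody-K) after 30 min at room temperature.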
# ClpP mod: qHTS Assay for Activators of ClpP | ATP-dependent Clp protease proteolytic subunit (Bacillus subtilis (strain 168)), P80244 | purified B. subtilis ClpP, FRET peptide cleavage, 20 min | Potency, µM (top dose mostly 57.5 µM), inactives show top-dose activity change, negative = active | actives 1.9% (n = 340,000) | AID 651965, 2013; active = well fitted falling curve with a large enough effect; inconclusive = small, poorly fitted or top-dose-only effect; inactive = no such curve, though single readings can be large or run the other way; also: potency is read from the fitted curve at half-maximal effect; the source files actives as falling curves though it sought activators and does not explain the sign; nearly all actives have a fitted effect of over 65% in size; many hits overshoot -100%
# Target sequence (P80244 whole entry, looked up): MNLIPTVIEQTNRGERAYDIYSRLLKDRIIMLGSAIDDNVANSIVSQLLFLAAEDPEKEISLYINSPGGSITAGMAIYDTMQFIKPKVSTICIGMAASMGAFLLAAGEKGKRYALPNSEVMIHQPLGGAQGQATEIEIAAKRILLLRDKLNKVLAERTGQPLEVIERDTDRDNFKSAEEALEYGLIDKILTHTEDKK
#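 Buffer: 100 mM Tris/HCl pH8, 100 mM KCl, 0.05% low protease BSA, 2.5% glycerol, 0.01% Tween-20. ClpP 10 microg/mL final; 20 min RT; delta FRET normalized to ADEP and DMSO controls.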
# An asterisk follows results filed as active; u = inconclusive; x = no result given; [ ] = remark or other dose.
SMILES,Menin MLL FP FL,TRPV1 potentiator,gsp antag,D2 PAM,Sfp inh,gsp agonist,ClpP mod
O=C(c1ccccc1)C(O)(CN1CCCCC1)c1ccccc1 (stereo unspecified),x,x,8%,-10,x,2%,x
COc1ccc(-c2nc(SCc3ccccc3)n(S(C)(=O)=O)n2)cc1,2.0,-3,0%,-51,5%,5%,0.2%
CSc1cccc(NC(=O)CN(C2CCCCC2)S(C)(=O)=O)c1,6.6,-11,1%,-8,8%,-12%,1.4%
CC(C)NC(=O)N(C)C[C@@H]1OCc2cnnn2CCCC(=O)N([C@H](C)CO)C[C@@H]1C,x,x,x,1,x,-88%[inhibitor],0.5%
COc1ccc(/C=C2\SC(=S)N(CCC(=O)Nc3ccccn3)C2=O)cc1OC,u,12,4%,-3,11%,-22%,x
O=C(O)CNC(=O)c1ccc(S(=O)(=O)N2CCOCC2)cc1,1.1,-7,1%,5,13%,u,-0.8%
Cc1cc(C)c2c(c1)/C(=N/NC(=O)c1cc(C)oc1C)CCC2,2.8,-21,-1%,-19,4%,1%,-13%
COc1cc(OC)cc(C(=O)NC(=S)NNC(=O)Cc2cccs2)c1,3.6,5,-3%,-10,-15%,-18%,-1.1%
COc1ccc(C=C(NC(=O)c2ccccc2)C(=O)O)cc1OC,x,x,1%,-9,x,22%,-2.0%
COc1cccc(CC(=O)OCC(=O)NC(Cc2ccccc2)C(C)=O)c1 (stereo unspecified),x,6,11%,-14,x,-4%,0.4%
CCOc1ccc(NCc2nc3ccccc3n2CCOc2ccccc2)cc1,-0.8,2,-26%,-18,-2%,-54%[inhibitor],-9.6%
CC(C)(C)C1=Nn2c(nnc2-c2ccccn2)SC1,5.0,x,5%,-14,56µM*,1%,0.3%
Cc1ccc(C(=O)O)cc1NC(=O)CN1C(=O)C2C3c4ccccc4C(Br)(c4ccccc43)C2C1=O (stereo unspecified),3.0,4,2%,-16,14%,-2%,-4.2%
Cc1cc(C)c(Cn2cnc(-c3ccc([N+](=O)[O-])cc3)c2)c(C)c1,-0.5,-14,-16%,-5,u,-10%,2.0%
Cc1ccc(C2=NN(CC(=O)NCc3ccccn3)C(=O)CC2)cc1,2.7,0,7%,-7,10%,24%,-1.7%

# Arranged by heavy-atom count (ascending): part of the list above
SMILES,Menin MLL FP FL,TRPV1 potentiator,gsp antag,D2 PAM,Sfp inh,gsp agonist,ClpP mod
CSc1cccc(NC(=O)CN(C2CCCCC2)S(C)(=O)=O)c1,6.6,-11,1%,-8,8%,-12%,1.4%
COc1ccc(C=C(NC(=O)c2ccccc2)C(=O)O)cc1OC,x,x,1%,-9,x,22%,-2.0%
COc1ccc(-c2nc(SCc3ccccc3)n(S(C)(=O)=O)n2)cc1,2.0,-3,0%,-51,5%,5%,0.2%

# The list continues.
SMILES,Menin MLL FP FL,TRPV1 potentiator,gsp antag,D2 PAM,Sfp inh,gsp agonist,ClpP mod
COc1ccc(NC(=O)c2ccco2)c2ccccc12,-0.4,8,-3%,-15,12%,-21%,-0.4%
CSc1n[nH]c2nc3c(c(=O)n12)C1(CCCCC1)Cc1ccccc1-3,3.5,-19,-14%,-4,18µM*,-26%[15.4 µM],x
Clc1nssc1=Nc1nncs1,x,3,-9%,-14,x,21%,-0.1%
O=C(C1CCCO1)N1CCN(S(=O)(=O)c2ccccc2)CC1 (stereo unspecified),0.1,3,13%,-1,9%,-42%,0.1%
C=CCN(CC=C)C(=O)COC(=O)c1n[nH]c2ccccc12,1.9,5,4%,-4,3%,14%[15.4 µM],x
CC(NC(=O)c1ccco1)C(c1cccs1)N1CCN(c2ccc(F)cc2)CC1 (stereo unspecified),-1.0,-8,-19%,-35,2%,15%,-18%
O=C(C[C@H]1C/C=C\C[C@H](Cc2ccc(F)cc2)C(=O)O[C@@H](c2ccccc2)CNC1=O)N[C@@H](CO)Cc1ccccc1,x,x,-8%,-2,x,x,-1.9%
CCCCc1cc(=O)oc2cc(OCC(=O)N3CCc4ccccc43)ccc12,3.6,5,0%,2,9%,11%,26%
O=c1nc(-c2ccccc2)c2cc(Cl)ccc2[nH]1,34[activator],10,-12%,-12,-9%,13%,u
Cc1ccccc1-c1nn(-c2ccc(F)cc2F)cc1CNCCN(C)C,1.6,10,15%,-12,-7%,-2%[15.4 µM],1.4%
CC(C)CNC(=O)C(=O)NCCCN1CCOCC1,-6.3,-1,8%,-24,7%,8%[15.4 µM],0.6%
CN(C)N1C(N)=C(C#N)C(c2ccc(Cl)cc2)C2=C1CCCC2=O (stereo unspecified),-0.6,-8,-41%,-3,1%,23%[15.4 µM],0.6%
CC(=C1C(=O)c2ccccc2C1=O)N1CCN(CCN=CC2=C(O)CC(C)(C)CC2=O)CC1,2.8,-2,-6%,-9,13%,-1%,-5.4%
c1csc(-c2nn3cnnc3c3ccccc23)c1,6.5,4,14%,-17,3%,5%[15.4 µM],-0.2%
CCOc1cc(C(=O)Nc2ccc(NC(C)=O)cc2)ccc1OCC(=O)N1CCCCC1,-1.2,22,0%,-3,-7%,-21%[15.4 µM],-3.6%
Cc1ccc(NS(=O)(=O)c2cccc(C(=O)NCC3CCCO3)c2)cc1 (stereo unspecified),x,10,4%,-2,x,-9%[15.4 µM],-5.3%
CCCCn1c(SC(C)C(=O)NCC2CCCO2)nc2cc(C(=O)OC)ccc2c1=O (stereo unspecified),x,-21,-27%,-28,x,-21%,-24%
O=C(CCCc1nc(-c2ccccc2)no1)NC1CCCC1,1.1,6,4%,-10,18%,u,x
CN1C=C(C(F)(F)F)C=C/C1=C(\C#N)c1nnc2n1CCCCC2,0.4,-1,3%,-5,13%,u,-0.7%
Cc1[nH]nc2c1C(c1ccc(OC(=O)c3ccco3)cc1)C(C#N)=C(N)O2 (stereo unspecified),2.3,10,-2%,-24,11%,-13%,-0.8%
CCc1ccc(NC(=O)[C@H](NC(=O)[C@@H]2Cc3ccccc3CN2)c2ccccc2)cc1,x,u,-7%,-36,-23%,u,-5.9%
CCn1c(O)c(C2=c3ccccc3=NC2=O)c2cc(Br)ccc21,-2.3,6,6%,-1,-21%,-47%[inhibitor],x
CCN(CC)c1ccc(C2NC(=O)c3ccccc3N2)cc1 (stereo unspecified),x,x,4%,-14,x,20%,2.2%
COc1ccc(CCNc2nc(C)nc3c2oc2ccccc23)cc1OC,1.8,0,40µM*,-7,28µM*,12%,-1.1%
CCC(C)(C)NC(=O)CN(C(=O)CCC(=O)Nc1nccs1)c1ccccc1C,-0.5,4,-1%,-11,10%,-7%[15.4 µM],1.3%
CCCn1cc(CN2CCCC(CNC(=O)c3ccc(F)cc3)C2)c(C)n1 (stereo unspecified),-1.7,-8,10%,-11,-1%,20%,x
CCOc1ccc(NC(=S)N2CCCN(Cc3cc(C)ccc3C)C2)cc1,-1.5,3,-6%,-30,13%,-21%,-0.1%
CCn1cc(C(=O)O)c(=O)c2cc(Br)ccc21,1.9,6,3%,12,15%,-1%,-0.3%
Cc1nn(CC(=O)NCCN2CCCCC2C)c(=O)c2cc(-c3ccccc3)nn12 (stereo unspecified),0.3,13,7%,-4,-1%,12%,-2.6%
CC(=O)N1CCN(CC(=O)Nc2cc(F)ccc2C)CC1,1.2,-4,0%,-21,6%,3%[15.4 µM],-1.1%
O=C(/C=C/c1ccccc1)NC(=S)Nc1ccc(CN2CCOCC2)cc1,6.2,-2,u,-19,9%,-2%[15.4 µM],x
CCc1c(C)nc(Nc2nc(C)c3ccc(OC)cc3n2)[nH]c1=O,-0.2,7,8%,-6,23%,-2%,-7.0%
COc1cc(Cl)ccc1OCc1cc(C(=O)N(C)C2CC(C)(C)NC(C)(C)C2)no1,x,-39,2%,-15,24%,-1%,-3.8%
Clc1ccccc1CO/N=C1\CCCc2nonc21,3.2,2,0%,-5,7%,5%[15.4 µM],0.3%
O=C(O)C1(NS(=O)(=O)c2ccc(Cl)cc2)CCCCC1,4.0,8,4%,3,16%,-5%,-0.1%
CCOc1ccc(-n2nc3ccc(NC(=O)c4ccc5c(c4)OCCO5)cc3n2)cc1,-0.6,-3,-2%,-3,20%,-2%,8.9µM*
Cc1ccc(NC(=O)CSc2nnc(-c3cc(C)on3)o2)cc1,5.4,5,-22%,-11,13%,25%[15.4 µM],x
CCc1c(C)nc2c(-c3ccccc3)c(C)[nH]n2c1=O,0.8,-15,-8%,-11,-1%,2%[15.4 µM],-1.4%
CCN(CC)C(=O)C1=C(C)N(CCC2=CCCCC2)C(=O)C(CC(=O)NC2CCCC2)C1 (stereo unspecified),x,x,x,-2,x,u,0.0%
CC(=O)c1cccc(NC(=O)CC2S/C(=N/N=C/c3ccccc3)NC2=O)c1 (stereo unspecified),2.8,5,-5%,-1,-12%,-1%,0.1%
Cc1ccc(NC(=O)CC2S/C(=N/N=C3/NC(=O)CS3)NC2=O)cc1 (stereo unspecified),-1.6,3,12%,-40,4%,-14%[15.4 µM],-3.0%
O=C(CNC(=O)Cn1ccc2ccccc2c1=O)NCCCN1CCCCCC1,-11,4,2%,4,3%,10%,-29%
COCCn1cnc2c1c(=O)[nH]c(=O)n2Cc1ccccc1,0.6,-3,6%,-3,7%,14%,3.0%
C=CCC(C(=O)OC)(C(=O)OC)c1ccccc1[N+](=O)[O-],1.7,-19,5%,-3,24%,4%,x
CCCCn1c(N)c(N(CC(C)C)C(=O)c2cc(C)nc3ccccc23)c(=O)[nH]c1=O,x,2,1%,-9,x,u,-2.1%
C[C@@H](C(=O)Nc1ccc2c(c1)OCCO2)n1nnc2ccccc2c1=O,-0.3,24,-9%,-5,7%,2%,-0.2%
CC(C)C[C@H]1CN=C(Nc2ccccc2)N1CCCC1CCCC1,0.0,-3,8%,-100,4%,x,-3.3%
COc1cccc(NC(=O)CCC2CCN(C(=O)C3CC=CCC3)CC2)c1 (stereo unspecified),x,6,6%,-13,10%,-15%,1.8%
